RanGTP-Imp inh = inhibitors of RanGTP-importin-beta interaction, primary screen, biochemical, FRET, CFP-Ran, YFP-importin-beta, homogeneous. 300,000 tested, 1.1% active. inhibition, % (no concentration beside the values). AID 2216. cell-free CFP-Ran/YFP-importin-beta FRET ratio;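 active means most replicates above 15%; inconclusive means exactly half above 15%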;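 further: 0% = DMSO wells and 100% = Ran loaded with GDP instead of GTP; wells of about 40 µL received 100 nL stock; the first replicate is given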
T cruzi repl = T. cruzi replication inhibition; T. cruzi beta-gal in NIH3T3, luminescence, 90 h; 300,000 tested, 1.4% active; AID 1885; inhibition, % (concentration not given with the values);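 active means mean inhibition across valid replicates above about 55%, limit read from the data; inconclusive means mean below that limit but half or more replicates reach it; inactive means mean below it, under half of replicates reach it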;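 further: signal also drops with host cell toxicity which is not excluded here; 0% = plate median of DMSO wells and 100% = zero luminescence signal; higher percent means less beta-gal luminescence so fewer parasites; stock transfer was 50 nL into about 50 µL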
Ecoli rRNA inh = inhibits bacterial ribosomal RNA function over humanized ribosomes; E. coli WT GFP vs humanized-ribosome RFP mutants, fluorescence, 24 h; hits give low values; DMSO median 0, no signal -100; 350,000 tested, 1.6% active; GFP signal change (wild-type ribosome), % (concentration not given with the values); AID 720706;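 active means significant combined selectivity score with lowered wild-type GFP, culture density cut under 30%, mutant RFP and density less affected; inactive means any of these conditions unmet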; further: one replicate is shown; some compounds called inactive have numbers as strong as hits
MLL AF4-AF9 inh = inhibitors of human MLL-AF4/AF9 interaction | AlphaScreen, biotin-AF4 peptide binding to FLAG-AF9 | inhibition, % at 10 µM | 350,000 tested, 0.47% active | AID 651704;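 active means every replicate reaching a set inhibition limit, whatever the replicate mean, cut at about 25% in these data; inconclusive means mean inhibition reaches that limit but some replicates miss it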;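 further: 0% = plate neutral control median and 100% = total signal loss; the record names both 10 and 1 µM as test concentration; the first replicate is given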
Target sequence (P42568 whole entry, looked up): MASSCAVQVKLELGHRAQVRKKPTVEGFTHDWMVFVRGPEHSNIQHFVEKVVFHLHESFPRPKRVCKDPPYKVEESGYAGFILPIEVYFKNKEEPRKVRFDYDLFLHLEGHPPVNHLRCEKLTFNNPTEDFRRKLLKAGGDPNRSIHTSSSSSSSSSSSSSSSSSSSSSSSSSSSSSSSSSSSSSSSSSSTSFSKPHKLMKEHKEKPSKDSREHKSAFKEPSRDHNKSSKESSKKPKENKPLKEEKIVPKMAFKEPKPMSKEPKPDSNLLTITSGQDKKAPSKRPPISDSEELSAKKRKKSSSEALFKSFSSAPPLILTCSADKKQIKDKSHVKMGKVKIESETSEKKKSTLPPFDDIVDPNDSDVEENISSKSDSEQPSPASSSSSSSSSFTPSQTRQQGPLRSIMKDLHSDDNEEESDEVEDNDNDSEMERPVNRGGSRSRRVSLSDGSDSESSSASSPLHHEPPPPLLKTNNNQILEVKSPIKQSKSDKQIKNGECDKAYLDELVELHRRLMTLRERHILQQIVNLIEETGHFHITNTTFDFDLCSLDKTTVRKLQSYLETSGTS
Vif A3G = HIV-1 Vif–A3G interaction blockers – biochemical, TR-FRET, GST-Vif 1-94, biotin-A3G peptide, dose response retest, primary screen (AID 1117319) | 260,000 tested, 0.57% active | inhibition, %; hits with a dose series show IC50 in µM | TR-FRET GST-Vif / biotin-A3G peptide binding; higher % means a stronger effect; test concentration not given here; strong numbers were not always called active;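 active means above the screen mean plus three standard deviations and confirmed in dose response; inconclusive means results disagree or hit not tested in dose response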;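 further: Vif residues 1-94 fused to GST binding biotinylated APOBEC3G peptide 110-148; 0% = full assay without inhibitor and 100% = GST in place of GST-Vif; retest series ran down from 100 µM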
Beta cell apopt = blocks beta cell apoptosis; 300,000 tested, 0.8% active; protection from apoptosis, % (concentration not given with the values); INS-1E cytokine-induced death, ATP luminescence, 48 h; percent of positive-control rescue, neutral wells zero;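 active means all replicates at 75% or more, or half of them and the mean; inconclusive means half reach 75% but not the mean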;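 further: 0% = cytokine-treated negative control wells and 100% = positive control rescue; higher means more ATP so stronger rescue from cytokine killing; wells of about 40 µL received 100 nL stock; the first replicate is given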
Calb FLC = C. albicans growth modulation with fluconazole; C. albicans CaCi-2 (fluconazole-resistant clinical isolate) + fluconazole, Alamar Blue growth, 48 h; growth inhibition, % (test concentration not listed); 300,000 tested, 0.57% active;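 active means most replicates above 75%; inconclusive means exactly half above 75%; inactive means most below 75%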;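 further: all wells also contain fluconazole at 8 µg/ml as a sub-toxic cotreatment; 0% = median of DMSO wells and 100% = median of geldanamycin control wells; wells of about 8 µL received 7.5 nL stock; the first replicate is given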
A1 inh = inhibitors of the anti-apoptotic protein A1, read as caspase activation | 330,000 tested, 0.066% active | MEF A1-2A-BIM cells, Caspase-Glo 3/7 luminescence, 3 h; percent of clofoctol response, vehicle zero | caspase activation, % (concentration not given with the values);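 active means over half of replicate activation scores above 10%, or exactly half above 10 with the replicate mean above 10; inconclusive means replicate mean below 10 yet half the replicates above 10; inactive means over half of replicates below 10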;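 further: wells of about 30 µL received 50 nL stock; many hits fall short of the cut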
Ecoli rRNA inh OD600 = further read-out of Ecoli rRNA inh, marked with its call; OD600 change, %; measured here: OD600 growth;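 optical density of the mix in the first replicate; 0 = DMSO median and -100 = no signal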
Ecoli rRNA inh RFP = recorded beside Ecoli rRNA inh, whose call it bears; RFP signal change, %; measured here: RFP humanized mutant strains;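 first replicate; 0 = DMSO median and -100 = no signal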
* = called active by the depositor; ? = inconclusive; / = no result given. Only part of the results is shown (hit frequency here may not be typical).

SMILES	RanGTP-Imp inh	T cruzi repl	Ecoli rRNA inh	Ecoli rRNA inh OD600	Ecoli rRNA inh RFP	MLL AF4-AF9 inh	Vif A3G	Beta cell apopt	Calb FLC	A1 inh
N#C/C(=C(/O)COC(=O)CSc1ccc(Cl)cc1)c1nc2ccccc2[nH]1	2.5	-10.6	3.1	1.7	2.8	-4.6	/	-4.3	65.2	0.5
CNC(=S)N/N=C/c1c2ccccc2c(Cl)c2ccccc12	4.4	9.8	2.9	9.0	-0.5	9.3	/	6.7	4.5	-0.8
O=C(CCSc1ccccc1)Nc1nnc(-c2cccs2)o1	?	3.8	-18.3	-19.3	-5.8	-3.7	-7.9%	/	0.1	0.4
CC1=Nc2cc(C(=O)O)ccc2Sc2c(C)ccc(C)c21	-2.0	-10.8	-37.0	-49.7	-7.8	0.0	-4.3%	-0.2	5.3	0.6
COCc1cc(C)nc(SCc2ccc(Cl)cc2)c1C#N	-1.1	15.5	-3.9	-8.1	-10.1	-5.9	-8.2%	11.4	4.9	-0.1
N#CCSc1nc2c(sc(=S)n2Cc2ccco2)c(=O)n1-c1ccc(F)cc1	1.0	42.1	/	/	/	/	-5.6%	9.0	3.5	-0.8
CCCCCC(=O)Nc1nc2ccccc2[nH]1	-1.1	-3.9	/	/	/	/	12.1%	4.8	-11.3	-0.9
O=C(COc1ccc(Cl)cc1Cl)NCCCCc1ccccc1	-1.7	4.1	/	/	/	/	-1.5%	-2.7	-5.8	0.6
OC1(c2cn(Cc3ccccc3)nn2)CCCCC1	1.6	-9.0	/	/	/	/	-5.0%	3.4	-6.9	0.5
N/C(=N\OC(=O)CCC1CCCCC1)c1ccc([N+](=O)[O-])cc1	-8.2	-13.6	/	/	/	/	0.7%	-0.4	-21.2	1.2
C=CCNC(=O)c1ccc(-n2cccc2)cc1	6.7	5.6	-2.2	-1.6	-0.4	0.3	-2.1%	-0.8	8.8	0.6
COc1ccc2[nH]c(C(=O)NCc3ccccc3)c(C)c2c1	-1.4	2.5	7.9	-3.1	-1.4	1.3	1.6%	-5.1	-1.6	-1.1
Cc1nn(C(C)(C)C)c(OC(=O)CC(C)C)c1S(=O)(=O)c1ccccc1	-1.2	-4.6	-21.5*	-14.2*	-1.5*	-21.3	-8.3%	-5.2	12.1	0.3
COc1cc(C(=O)N(C)C2CCCN(Cc3ccccc3F)C2)cc(OC)c1OC (stereo unspecified)	-1.0	0.7	8.8	9.8	1.4	0.2	/	/	2.2	1.5
CCC(C)(C(=O)Nc1ccccc1C)N(C(=O)CNC(C)=O)c1ccccc1C (stereo unspecified)	-0.9	-12.3	/	/	/	/	-1.4%	-2.9	-9.7	0.6
CCOC(=O)C(Cc1ccccc1)c1ccnc2nc(N)nn12 (stereo unspecified)	-3.3	-2.6	22.3	26.4	1.7	-1.9	-5.9%	-4.4	-3.2	0.2
O=C(C1CCN(S(=O)(=O)c2ccc3c(c2)OCCO3)CC1)N1CCc2ccccc21	1.3	9.5	/	/	/	/	24.2%	-4.8	15.9	0.0
O=C(CSc1nnc(CNC(=O)c2ccccc2F)o1)NCC1CCCO1 (stereo unspecified)	-3.9	-12.8	/	/	/	/	1.1%	-3.3	5.5	0.3
Cc1cc(=O)[nH]c(SCC(=O)N2CCC(C(N)=O)CC2)n1	-0.2	17.6	/	/	/	/	-1.4%	-5.2	17.3	0.0
OCCOc1ccc(C2=NCCO2)cc1	-3.6	-6.4	8.8	10.8	-0.7	-2.4	4.3%	2.2	0.5	-0.2
COc1ccc(NC(=O)NS(=O)(=O)c2ccc(C)cc2)cc1OC	/	/	7.8	12.0	-0.4	12.4	/	-1.9	/	0.1
COC(=O)C1SCC2C(=O)N(Cc3ccc(Cl)c(Cl)c3)CC(=O)N21 (stereo unspecified)	0.4	1.6	-8.3	-7.1	-0.9	-1.8	/	-5.1	-9.5	1.6
COc1cc(C2NC(=O)NC(c3ccccc3)=C2C(C)=O)c(Br)cc1OCC(N)=O (stereo unspecified)	2.8	-2.0	-2.4	0.1	-5.5	0.5	/	-5.3	6.6	0.7
CO/N=C(/CNC(=O)c1ccc(Cl)cc1Cl)c1ccc(Cl)cc1	-5.4	0.5	/	/	/	/	32.1%	2.7	7.2	-0.1
Cc1onc(-c2ccccc2Cl)c1C(=O)Nc1sc2c(c1C#N)CCC2	45.4*	-8.6	-13.7	-38.2	1.8	/	16.5%	9.2	76.7*	0.1
CC1(c2ccc3noc(-c4ccccc4)c3c2)OCCO1	-2.1	-0.8	/	/	/	/	>100µM*	0.1	6.3	0.2
Cc1cc(C)n(Cc2ccc(Cl)c(Cl)c2)c(=O)c1S(=O)(=O)c1ccccc1	1.5	9.3	/	/	/	/	-27.5%	/	-5.5	/
COc1ccc(NC(=O)c2cc(-c3ccc(C)cc3)on2)cc1OC	2.0	-11.5	9.6	10.5	1.5	-11.5	/	2.4	-3.7	0.0
Cc1cc(Cc2ccc([N+](=O)[O-])cc2)c(C)cn1	-1.7	-12.4	-1.2	5.0	-1.3	-2.9	5.4%	2.6	-16.3	0.4
CCOC(=O)N/N=C/c1c(C)nn(-c2cccc(C(F)(F)F)c2)c1Cl	-0.3	-17.0	/	/	/	/	-2.3%	35.4	1.3	-0.2
Cc1ccc(-c2nc3ncccc3o2)cc1N	-5.6	-1.1	0.0	3.3	-2.2	-3.3	/	-0.3	-14.0	-1.9
O=C(Oc1ccc(OC(=O)c2ccncc2)cc1)c1ccncc1	1.5	-4.8	2.0	0.0	-0.8	-0.3	/	-17.0	1.7	-1.2
CNC(=O)COC(=O)c1ccc(Cl)c(S(=O)(=O)N2CCCC2)c1	-5.4	3.5	7.0	-0.7	-0.3	0.7	4.5%	-2.9	-3.7	1.5
Cc1c(C(=O)Nc2nc3ccccc3[nH]2)oc2c(Cl)cccc12	3.8	69.8*	5.3	-1.6	0.5	-1.1	-5.0%	38.1	2.1	0.1
O=C(COC(=O)c1cc(Cl)ccc1O)NNC(=O)c1ccc([N+](=O)[O-])cc1	3.8	-3.8	8.1	2.2	-2.7	-1.2	-3.5%	0.7	/	-0.1
CC(C)CCNC(=O)NC(=O)COC(=O)C1CCN(S(=O)(=O)c2ccccc2F)CC1	?	-10.5	/	/	/	/	18.6%	0.2	-1.2	-0.2
Cc1ccc(NC(=O)CC2NCCNC2=O)cc1 (stereo unspecified)	-0.2	-13.4	/	/	/	/	-5.8%	-2.4	0.3	0.0
O=C1CC(c2ccccc2)c2ccccc21 (stereo unspecified)	1.4	16.0	5.5	-6.1	-2.7	0.8	3.2%	-2.6	-8.3	-0.1
CCc1ccc2c(c1)c1nc(C)sc1n2CC	4.4	-0.4	/	/	/	/	0.2%	-21.6	-7.7	0.3
CC(C)(C)c1cc2nc3c(c(=O)n2[nH]1)CN(Cc1ccccc1)C3=O	-3.4	-10.0	-0.2	-10.9	-3.5	/	-3.7%	-0.5	-1.3	1.4
O=C1OC(c2ccc(Br)cc2)=N/C1=C\c1ccco1	4.3	-0.5	5.9	21.8	1.8	0.1	/	/	-23.4	-0.2
CCn1c(=O)c(=O)[nH]c2cc(C(=O)N3CCN(c4ccccc4F)CC3)ccc21	1.5	-4.4	/	/	/	/	10.2%	0.6	5.3	0.1
CC(=O)Nc1sc(N)nc1-c1ccccc1	-0.6	3.6	6.9	16.0	-0.8	0.7	-5.2%	-9.3	14.9	0.3
CSc1nsc2nc(=O)c(/C=C3\C=Nc4ccccc43)c(N)n12	26.2*	0.2	-22.6	-24.9	8.2	2.2	-13.5%	-5.7	26.9	-3.9
CC(OC(=O)c1cccnc1Cl)C(=O)NCc1ccccc1 (stereo unspecified)	/	/	6.5	2.4	-4.3	-2.9	/	-2.9	/	1.6
CCCCC(=O)Nc1nnc(S(=O)(=O)N(C)Cc2ccco2)s1	2.1	-6.0	-1.2	-4.5	-1.8	0.2	8.9%	-1.8	1.4	0.3
CCOC(=O)c1nc(NCc2ccccc2F)c2ccccc2n1	1.9	11.0	-1.4	-5.8	-0.5	-1.5	-9.7%	2.6	13.0	0.7
CCOC(=O)C1CC2CC(C1)CN(C(=O)C1CCCCC1)C2 (stereo unspecified)	6.2	-2.0	2.1	-2.1	0.5	1.6	/	-4.8	-7.1	-0.2
CN(CCc1ccccn1)C(=O)CC1C(=O)NCCN1Cc1ccc(-c2ccccc2)cc1 (stereo unspecified)	1.0	-8.2	/	/	/	-1.2	5.1%	-7.1	-4.6	-1.1
Cc1ccccc1OCC(=O)Nc1nnc(C2CC2)s1	/	/	6.4	18.4	-0.2	-12.2	-3.8%	-7.6	/	-0.7
Carrying on:
SMILES	RanGTP-Imp inh	T cruzi repl	Ecoli rRNA inh	Ecoli rRNA inh OD600	Ecoli rRNA inh RFP	MLL AF4-AF9 inh	Vif A3G	Beta cell apopt	Calb FLC	A1 inh
COC(C(=O)Nc1ccnn1C1CCN(Cc2cnn(C)c2)CC1)c1ccccc1 (stereo unspecified)	3.6	-7.6	16.7	9.9	1.5	0.8	/	-9.9	-0.6	-1.1
Cc1c(NC(=O)c2c(F)c(F)c(F)c(F)c2F)c(=O)n(-c2ccccc2)n1C	?	9.3	/	/	/	/	?	-4.0	-4.3	2.3
COC(=O)c1cc(S(=O)(=O)N2c3ccccc3CC2C)c[nH]1 (stereo unspecified)	?	-17.6	1.2	-14.1	2.5	5.8	-3.1%	-2.2	5.0	1.3
Cc1cccc(-c2cccc(NC(=O)C3CCCN(C(=O)c4csc(C)n4)C3)c2)c1 (stereo unspecified)	1.8	25.0	-36.5	-64.2	-8.9	-1.2	/	7.3	-0.5	-0.6
Cc1cccc(-n2c(CNC(=O)c3cccc([N+](=O)[O-])c3C)n[nH]c2=S)c1	3.2	-0.2	20.7	25.0	1.0	-9.5	/	-5.4	22.8	-0.3
Cc1ccc(N2C(=O)CC(NNC(=O)c3cccc(S(=O)(=O)N4CCCC4)c3)C2=O)cc1 (stereo unspecified)	-2.2	-8.0	2.5	12.1	-0.8	-14.7	/	-18.2	26.0	0.9
COc1cc2c(cc1OC)C(=S)NC1(CCCC1)C2	-2.8	-9.1	-6.0	-8.8	-9.7	1.4	/	1.5	4.9	1.9
O=C(CSc1nc2ccc(NC(=O)c3ccccc3C(=O)O)cc2s1)Nc1ccc(F)c([N+](=O)[O-])c1	2.5	11.5	-0.4	9.3	3.1	2.4	/	-2.5	-41.1	0.2
CN(C)c1ccc(/C=N/NC(=O)C(O)(c2ccccc2)c2ccccc2)o1	0.7	-3.7	/	/	/	/	27.1%	-4.0	-11.8	0.5
Nc1nc(Nc2ccc(Cl)cc2)nc(NCCO)c1[N+](=O)[O-]	2.5	1.4	6.0	14.1	10.3	-0.7	-5.7%	10.5	0.8	0.6

Bioassay records from PubChem.
